Bioassay records: PubChem BioAssay, several laboratories
PKD1 inh: inhibitors of human PKD1 kinase, biochemical, fluorescence polarization; 200,000 compounds, 0.056% hits; Serine/threonine-protein kinase D1 (Homo sapiens), Q15139; inhibition, %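 (about 10 µM by stock and volumes)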; PKD1 kinase fluorescence polarization assay;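 active means inhibition of 50% or more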;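 further: controls were vehicle for no effect and a reference inhibitor for full effect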
RGS16-Gao HTS: modulators of RGS16 binding to Galphao, primary screen, biochemical, human proteins, multiplexed bead flow cytometry. Regulator of G-protein signaling 16 (Homo sapiens) + Guanine nucleotide-binding protein …. bead-based flow cytometry RGS16-Galphao binding, fluorescence; actives lie on both sides. binding response (% of control), % at 10 µM. 220,000 compounds, 0.38% hits. AID 1441, 2008;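 active means below 25% or above 175%, edge rows of some plates excepted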;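 further: Galphao activated by GDP with aluminum fluoride before binding; 100% = wells without compound and 0% = beads without RGS; some results beyond the cut were filed as inactive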
Target sequence (O15492 whole entry, looked up): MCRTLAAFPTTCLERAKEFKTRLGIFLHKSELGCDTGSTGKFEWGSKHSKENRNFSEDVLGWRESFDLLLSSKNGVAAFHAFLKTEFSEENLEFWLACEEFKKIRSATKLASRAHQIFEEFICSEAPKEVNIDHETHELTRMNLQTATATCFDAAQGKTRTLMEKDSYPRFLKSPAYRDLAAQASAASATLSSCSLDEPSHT
Target sequence (P09471 whole entry, looked up): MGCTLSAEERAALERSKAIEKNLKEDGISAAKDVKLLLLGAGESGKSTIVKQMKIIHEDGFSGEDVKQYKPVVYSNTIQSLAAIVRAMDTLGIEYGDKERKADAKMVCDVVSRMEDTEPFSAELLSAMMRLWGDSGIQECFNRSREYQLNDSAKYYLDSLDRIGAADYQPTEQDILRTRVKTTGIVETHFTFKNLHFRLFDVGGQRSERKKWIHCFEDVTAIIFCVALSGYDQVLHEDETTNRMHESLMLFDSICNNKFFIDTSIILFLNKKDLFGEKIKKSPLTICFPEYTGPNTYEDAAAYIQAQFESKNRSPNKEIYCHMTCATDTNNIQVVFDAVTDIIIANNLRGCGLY
Insulin prom inh: inhibitors of insulin promoter-driven GFP, primary screen, imaging, TRM-6 cells (human fetal islet line), eGFP reporter, cell count; inhibition, % at 2 µM; AID 1273, 2008; 130,000 compounds, 0.9% hits; reporter expression induced with tamoxifen;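 active means inhibition above the mean plus 3 SD, with well images judged a real hit on visual review, cut at about 60% in these data, passing the limit was not always enough; inconclusive means inhibition over the cutoff but images rejected on review; inactive means inhibition not above the cutoff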
HSV replic up: enhancers of HSV replication in host cells, fold increase, host cell viability. HSV replication augmentation in cells. maximum fold increase. 220,000 compounds, 0.005% hits;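 active means peak rise of 1.5-fold or more in the series; inconclusive means self-fluorescent or not available for retest; tested in PC3 cells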;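 further: first round at 10 µM; read as green reporter fluorescence; hits show the peak of a series up to 25 µM; 1 = signal of infected wells without compound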
GALR2 agonist: GALR2 receptor agonists, primary screen, cell-based; Galanin receptor type 2 (Homo sapiens), O43603; GALR2-expressing cells, agonist activation read-out; activation, %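 (tested at 5 µM)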; 140,000 compounds, 0.48% hits; AID 803, 2007;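 active means above mean plus 3 SD of all compounds, about 5% in these data, not always enough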;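 further: 0% = vehicle buffer wells and 100% = reference agonist at full effect; tested in CHO reporter cells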
Target sequence (O43603 whole entry, looked up): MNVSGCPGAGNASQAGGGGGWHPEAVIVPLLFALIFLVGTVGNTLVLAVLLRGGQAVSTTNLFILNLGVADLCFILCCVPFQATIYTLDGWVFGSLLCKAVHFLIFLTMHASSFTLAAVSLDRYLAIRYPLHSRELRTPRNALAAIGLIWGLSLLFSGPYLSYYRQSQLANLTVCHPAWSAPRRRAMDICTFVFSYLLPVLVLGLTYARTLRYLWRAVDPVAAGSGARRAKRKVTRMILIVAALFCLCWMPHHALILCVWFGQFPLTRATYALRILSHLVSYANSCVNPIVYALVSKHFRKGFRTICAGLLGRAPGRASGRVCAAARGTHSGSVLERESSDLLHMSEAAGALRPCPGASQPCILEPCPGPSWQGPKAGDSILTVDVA
Insulin prom inh cell count: also measured in Insulin prom inh; calls as there; normalized cell count, %; measured here: cell count, toxicity; reference of the scale not given here;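 cells exposed to compound for 48 h; stained nuclei by imaging scaled within each plate; lower means fewer cells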
HSV replic up primary fold: further read-out of HSV replic up, marked with its call; fold increase; compound at 10 µM; measured here: primary screen fold increase 10 uM; tested in PC3 cells;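 GFP signal in the first replicate; 1 = infected wells without compound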
* hit, by the source's call; i = inactive; ? = inconclusive; . = no result given.

SMILES	Insulin prom inh cell count	PKD1 inh	HSV replic up	RGS16-Gao HTS	Insulin prom inh	GALR2 agonist	HSV replic up primary fold
O=C(O)[C@@H]1CCCC[C@@H]1C(=O)N1CCc2ccccc2C1CN1C(=O)c2ccccc2C1=O (stereo partly specified)	.	-5	.	104	.	-2.2	.
O=C(CC1C(=O)NCCN1C(=O)Nc1ccc(F)cc1)Nc1cc(Cl)ccc1Cl (stereo unspecified)	.	.	i	113	.	.	0.83
CCCn1c(N)c(C(c2ccc(OC)cc2)N2CCN(c3ccccc3)CC2)c(=O)[nH]c1=O (stereo unspecified)	92	3	i	95	-207	-1.2	0.89
CCOC(=O)C(Oc1ccc2c(-c3ccccc3)cc(=O)oc2c1C)c1ccccc1 (stereo unspecified)	.	-10	i	103	.	0.0	0.97
Cc1ccc(NC(=O)CS(=O)CC(=O)NCC2OCCc3ccccc32)c(C)c1 (stereo unspecified)	.	3	i	107	.	0.4	0.9
CC(C)OC(=O)c1c(NC(=O)CCC(=O)O)sc2c1CCCCC2	98*	4	i	18	67*	-0.6	0.83
COc1ccc(C(=O)Nc2ccc(O)c3c(=O)cc(-c4cccc(Cl)c4)oc23)cc1	.	.	i	96	.	.	0.72
NNc1ncnc2scc(-c3ccc(Cl)cc3)c12	.	6	i	146	.	1.1	0.8
CCCOc1ccc(Cc2c(Cl)nc(SC)nc2N(C)C)cc1	110	4	i	94	32	-1.0	1.1
O=C(c1ccc2c(=O)n3c(nc2c1)CCCCC3)N1CCN(Cc2ccccc2)CC1	101	2	i	105	26	-0.7	1.2
Cc1c(NC(=O)CN2C(=O)c3ccc([N+](=O)[O-])cc3C2=O)c(=O)n(-c2ccccc2)n1C	.	7	i	107	.	.	1.1
CCN(CC)C(=O)c1sc2nc(-c3cccs3)cc(-c3cccs3)c2c1N	.	.	i	102	.	.	1.1
OC(CON=C1c2ccccc2-c2ccccc21)CN1CCNCC1 (stereo unspecified)	.	3	i	102	.	.	0.75
O=C(O)CC1(CC(=O)Nc2ccc(Br)cc2)CCCCC1	142	-7	i	106	55	.	0.9
O=C(Oc1ccccc1)c1ccc2nsnc2c1	166	-1	i	98	47	-2.8	0.85
O=C(Nc1ccc(Cl)cc1Cl)NC1CCN(S(=O)(=O)c2ccc(F)cc2)CC1	.	.	i	99	.	.	0.9
COC(=O)CNC(=O)CNC(=O)c1nn(-c2ccc(OC)c(Cl)c2)c(=O)c2ccccc12	121	-9	.	96	-45	0.1	.
Cc1ccc(/C=C/C(=O)c2cc(Br)ccc2OC(=O)c2ccco2)cc1	65	-11	i	100	-30	-0.9	0.95
O=C(Nc1ccc(C(=O)Oc2ccccc2)c(O)c1)c1ccco1	93	-4	i	98	-32	-1.1	0.99
N#CC(c1ccc(O)cc1)N1CCOCC1 (stereo unspecified)	30	-7	i	107	61	-1.1	0.84
CCN(CC)CCN1C(=O)C(=O)/C(=C(/O)c2cccc(OC)c2)C1c1ccccn1 (stereo unspecified)	154	-11	i	104	-55	-2.0	0.96
CCOc1cc(C2C(C#N)=C(N)OC3=C2C(=O)CC(C)(C)C3)cc([N+](=O)[O-])c1O (stereo unspecified)	49	0	i	106	-18	.	0.92
COc1cccc(CC(=O)Nn2c(C)nc3ccccc3c2=O)c1	127	3	i	101	25	-0.3	0.83
C/C(CC(=O)Nc1cc(C)ccn1)=N\NC(=O)c1cccc(C)c1	75	-7	i	108	33	.	0.99
COc1ccc(S(=O)(=O)N2CCOCC2)cc1NC(=O)CSc1n[nH]c(C(C)C)n1	229	-2	i	100	-56	.	0.91
O=C1N=c2ccccc2=C1c1sc(=O)[nH]c1O	.	.	i	91	.	.	1
COc1ccccc1CN=C1Nc2ccccc2CS1	147	-4	i	98	-4	.	0.89
Cc1ccc(C(=O)N2C(CC(=O)Nc3ccc(Cl)cc3)C(=O)NC3CCCCC32)cc1 (stereo unspecified)	.	6	i	101	.	.	0.77
O=C(CSc1cn(CCNC(=O)c2cccs2)c2ccccc12)NCc1ccccc1	.	-2	i	43	.	-3.8	0.69
CCOC(=O)C(=Cc1ccc(-c2ccsc2C(=O)OC)o1)C(=O)OCC	129	-5	i	104	-18	0.3	0.72
CCc1nnc(NC(=O)c2cc3c(s2)CCCCC3)s1	64	-1	i	.	-8	0.5	1
CSc1ccc(S(=O)(=O)NCc2ccccc2Cl)cc1	184	0	i	102	-41	-1.6	1.1
CC(C)OC(=O)c1cc(=O)[nH]c2ccccc12	.	-13	i	104	.	-1.6	0.83
O=C(Nc1ccc(NC(=O)c2ccco2)c(Cl)c1)c1cccc([N+](=O)[O-])c1	118	1	i	97	7	.	0.73
CCCn1c(N/N=C\C=C\c2ccccc2)nc2c1c(=O)[nH]c(=O)n2C	.	4	i	99	.	.	0.75
COc1cccc(-c2nc(N3CCN(Cc4ccccc4)CC3)c3ccccc3n2)c1O	.	.	i	99	.	.	0.98
CCCOc1ccc(NC(=O)CC2C(=O)N(CC)C(=S)N2Cc2cccs2)cc1 (stereo unspecified)	120	2	i	102	0	-0.2	0.73
C=CCNC(=O)/C(=C/c1cn(-c2ccccc2)nc1-c1cccc([N+](=O)[O-])c1)NC(=O)c1ccccc1	.	6	i	69	.	-1.0	1
CCCCC1=C([O-])C2N=CC=CC2=[N+](c2ccccn2)C1=O (stereo unspecified)	65	-16	i	99	-15	-1.1	1
COC(=O)CCCC1=CC2=C(c3ccccc3)C(=O)C(C)(OC(=O)C3CCCC3)C(=O)C2=CN1C1CCCCC1 (stereo unspecified)	.	.	i	106	.	.	0.88
Cc1onc(-c2ccccc2Cl)c1C(=O)Nc1cccnc1	26	-13	i	90	-426	1.1	0.95
Cc1ccc(NC(=O)N2CCC(C(=O)NCCC3=CCCCC3)CC2)cc1	.	-13	i	104	.	-1.3	1.5
O=C(c1ccco1)N1CCN(S(=O)(=O)c2ccccc2[N+](=O)[O-])CC1	.	-5	i	101	.	.	0.86
O=C(CCl)Nc1cc(S(=O)(=O)N2CCCCCC2)ccc1Cl	107	18	i	94	-17	-0.3	0.96
Cc1cc(C)cc(N(CC(=O)NCC2CCCO2)C(=O)CN2C(=O)COc3ccccc32)c1 (stereo unspecified)	133	-5	i	98	0	0.0	0.85
Cc1ccc(S(=O)(=O)NN2C(=O)/C(=C/c3cccn3C)SC2=S)cc1	115	-15	i	105	-32	-2.7	1.1
Cc1c(CN2CCC(CO)(CCOc3ccccc3)CC2)[nH]c2ccc(Cl)cc12	.	-6	i	102	.	.	0.64
Cc1ccc(C(=O)N/C(=C/c2cn(-c3ccccc3)nc2-c2ccccc2)C(=O)O)cc1	.	-1	i	96	.	.	1.1
O=C(CSc1nnnn1-c1ccccc1)CSc1nnnn1-c1ccccc1	.	-6	i	111	.	-4.0	0.86
CCN(CC)c1nc(C(N)=O)cc(-c2ccccc2)n1	100	8	i	103	0	0.1	0.87

Next part
SMILES	Insulin prom inh cell count	PKD1 inh	HSV replic up	RGS16-Gao HTS	Insulin prom inh	GALR2 agonist	HSV replic up primary fold
CCOc1ccc(/C(O)=C2/C(=O)C(=O)N(CCN(CC)CC)C2c2ccco2)cc1 (stereo unspecified)	.	-3	i	95	.	-0.7	1.3
CC(=O)c1ccc(NC(=O)c2ccc(CNc3c(N4CCOCC4)c(=O)c3=O)cc2)cc1	.	.	i	101	.	.	0.93
Cc1ccc(S(=O)(=O)N(C(=O)c2ccncc2)c2ccc(OC(=O)c3ccncc3)cc2)cc1	67	-7	i	108	31	-1.0	0.86
CCCCN1C(=O)C(O)(CC(=O)c2ccccc2OC)c2ccccc21 (stereo unspecified)	121	-1	i	89	2	-1.1	0.85
O=C(CCn1c(=S)oc2ccccc21)Nc1cccc(F)c1	60	1	i	103	50	.	1
Cn1cccc1C(=O)NC(=O)COC(=O)CC12CC3CC(CC(C3)C1)C2	107	-9	i	103	26	-2.0	1.1
Cc1ccccc1NC(=O)CN1C(=O)COc2ccc(Cl)cc21	.	-4	i	103	.	-2.4	0.87
COCc1cc(Sc2cccc(Cl)c2Cl)nc(-c2ccccc2)n1	114	-16	i	112	3	-2.7	1.2
O=C(CCSCCc1ccccn1)Nc1ccc(Br)cc1F	126	4	i	110	-3	-0.7	0.9
COc1ccc(OC)c(/C=N/NC(=O)CN2CCSCC2)c1	133	-9	i	98	-76	0.2	0.92
COc1ccc(CC(=O)Nc2ccccc2C(=O)N2CCOCC2)cc1OC	139	-12	i	111	29	-0.7	0.96
Cc1ccc(-c2csc(NC(=O)/C=C/c3ccco3)c2C(=O)O)cc1	95	0	i	94	-21	.	1.1
Cc1ccc(Sc2cc(Cl)nc(N)n2)cc1	.	1	i	119	.	-2.1	0.81
C=CCN1C=CC(=C/C=C(/C#N)C(=O)OCC)C=C1	61	-8	?	104	-163	0.6	.
CCC(=O)Nc1cc(OC)cc(OC)c1	115	-7	i	100	24	.	1
CCC(C)c1ccc(NC(=S)NC2CCN(Cc3ccccc3)CC2)cc1 (stereo unspecified)	.	6	i	104	.	0.8	0.73
CC(=O)Nc1ncc(Cc2cc(Cl)ccc2Cl)s1	.	-5	i	89	.	.	0.96
O=C(NCCc1ccccc1)/C(=C\c1ccc([N+](=O)[O-])cc1)NC(=O)c1ccc(Br)cc1	141	-5	i	110	-10	4.3	0.97
CN1CCN(CC(O)(c2ccc(Cl)cc2)c2ccc(Cl)cc2)CC1	.	-2	i	102	.	.	0.8
O=C(Cn1c(C(F)(F)F)nc2ccccc21)Oc1cccc(C(F)(F)F)c1	.	8	i	105	.	-1.2	0.92
COc1ccc(OCCCNCCc2ccccc2)cc1	.	-2	i	99	.	.	0.82
Nc1cc(Cl)ccc1N1C(=O)CCC1=O	.	.	i	109	.	.	0.98
COn1c2c(c3c4nonc4ccc31)CCCC2	146	5	i	98	-107	0.1	0.87
Cc1ccc(NC(=O)c2cccs2)cc1S(=O)(=O)Nc1cccc(Cl)c1	.	4	i	100	.	-2.1	1.1
COc1ccc(-c2cc(C(=O)c3c(N)n(C)c(=O)n(C)c3=O)c3ccccc3n2)cc1OC	.	-11	i	103	.	.	1.1
O=C(O)C1C2C=CC(O2)C1C(=O)NCc1ccc(Cl)cc1 (stereo unspecified)	81	-4	i	101	-29	-1.0	0.9
CCc1nc2ccc(C(=O)NCc3ccco3)cc2nc1CC	.	2	i	102	.	-1.0	0.89
CCOC(=O)c1sc(-c2ccc(C)cc2)c(C#N)c1C	136	-11	i	97	3	0.5	1
Cc1nc2ccccn2c1C(=O)/C=C/c1cccc([N+](=O)[O-])c1	.	-4	i	82	.	.	0.68
Cc1cc(=O)[nH]c(N/N=C/c2ccc(N(C)C)cc2)n1	.	4	i	103	.	.	0.82
O=C1C2CC=CCC2C(=O)N1Cc1ccccc1 (stereo unspecified)	97	3	i	99	44	-2.4	1
O=C(Nc1ccccc1-c1ccccc1)c1ccc(Cl)c([N+](=O)[O-])c1	.	8	i	98	.	-2.5	0.54
CCOc1cc(NC(=O)c2ccccn2)c(OCC)cc1NC(=O)c1ccc(C)cc1	75	-4	i	101	0	.	1
COc1ccc(-c2nnc3ccc(SCC(=O)N4CCCC4)nn23)cc1	.	6	i	89	.	-0.9	1.1
Cc1ccc(CNC(=O)CCNS(=O)(=O)c2cccc3nonc23)cc1	70	-1	i	102	-38	-2.3	0.93
CC1C/C(=N\NC(=O)c2ccc(NS(=O)(=O)c3ccc(Br)cc3)cc2)CC(C)(C)C1 (stereo unspecified)	152	8	i	102	31	-1.2	0.83
O=c1nc(N/N=C/c2ccccn2)cn[nH]1	104	4	i	92	36	.	0.64
COc1ccc(/C=N\n2nnc3ccccc32)cc1	127	-11	.	96	-11	-0.5	.

Compounds as they come; any-hit rate near 1.3%.
